# Compound activity from PubChem.
# GALK inh: qHTS Assay for Inhibitors of Human Galactokinase (GALK); P51570; Purified GALK, Kinase-Glo residual ATP luminescence; Potency, µM (top dose mostly 57.5 µM), for inactives: top-dose activity change, negative = inhibition, usual class: inhibitors; 270,000 tested, 0.007% active; AID 1868, 2009; note: potency is the fitted concentration of half-maximal effect; % is set by controls: 0 for no effect and ±100 for the full control effect
#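 Human GALK (5 nM) with 35 uM ATP and 100 uM galactose in 20 mM HEPES pH 8.0, 5 mM MgCl2, 60 mM NaCl, 1 mM DTT, 0.01% BSA. After 1 h at room temperature, leftover ATP was read by Kinase-Glo Plus luminescence.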
# Integrin act MD: qHTS for Activators of Integrin-Mediated Alleviation for Muscular Dystrophy; Potency, µM (titrated, usually from 38.3 µM), for inactives: at the highest dose activation, most hits filed as activators; AID 624291, 2012; alpha7betagal myoblasts, beta-gal FDG fluorescence, 48 h; 350,000 tested, 0.064% active;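 note: potency is the fitted concentration of half-maximal effect; 100% = response of the positive control SU9516; nearly all actives have a fitted effect of over 60% in size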
#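 Alpha7betagal+/- myoblasts (passage 13) were plated 16-24 hr, then exposed to compounds (1:260 dilution of DMSO stock) for 48 hours at 37C. After MPER lysis, β-galactosidase reporter activity was read as FDG fluorescence (ex 480/em 540) after 30 minutes.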
# B2AR arrestin: qHTS assay of beta-arrestin-biased ligands of beta2-adrenergic receptor. Beta-2 adrenergic receptor (Homo sapiens), P07550. beta-arrestin recruitment to beta2AR, cell-based reporter. Potency, µM (series often up to 46.1 µM), without a hit: at the top dose activation, usual class: activators. 330,000 tested, 0.02% active;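 note: potency is the fitted concentration of half-maximal effect; 0% = DMSO controls and full agonism = EC100 isoproterenol or metaproterenol; nearly all actives have a fitted effect of over 65% in size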
# Target sequence (P07550 whole entry, looked up): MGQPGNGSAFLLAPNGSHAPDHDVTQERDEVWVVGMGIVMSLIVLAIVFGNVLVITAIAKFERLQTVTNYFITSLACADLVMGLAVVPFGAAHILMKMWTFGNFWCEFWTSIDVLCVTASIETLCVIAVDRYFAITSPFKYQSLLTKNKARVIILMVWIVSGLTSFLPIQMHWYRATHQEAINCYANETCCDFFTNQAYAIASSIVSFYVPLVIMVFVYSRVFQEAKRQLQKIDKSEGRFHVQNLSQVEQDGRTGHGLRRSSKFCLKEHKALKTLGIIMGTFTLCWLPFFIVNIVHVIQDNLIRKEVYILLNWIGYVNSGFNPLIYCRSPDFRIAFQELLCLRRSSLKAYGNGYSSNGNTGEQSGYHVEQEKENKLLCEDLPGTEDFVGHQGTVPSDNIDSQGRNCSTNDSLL
# ASM inhibitor: Inhibitors of Secretory Acid Sphingomyelinase (S-ASM): qHTS; AID 504937, 2011; placental ASM, HMU-PC fluorogenic substrate, 60 min; 340,000 tested, 0.006% active; Sphingomyelin phosphodiesterase (Homo sapiens), P17405; Potency, µM (doses to about 57.5 µM), for inactives: at the highest dose activity change, negative = inhibition, hits mostly inhibitors; note: potency is the fitted concentration of half-maximal effect
#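 Human placenta-derived ASM preincubated with compound 10 min at room temperature, then reacted with 9 uM (final) fluorogenic HMU-PC substrate for 60 min at 37 C. Stop solution raises pH to 10; fluorescence read at Ex 386/Em 447 nm.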
# BCR signal inh: qHTS Assay to Find Inhibitors of Chronic Active B-Cell Receptor Signaling. ABC-DLBCL IkBa-CBG/CBR reporter, luminescence ratio, 4 h. Potency, µM (doses to about 46.1 µM), inactives show at the highest dose ratio change, negative = lower green/red ratio, usual class: inhibitors. 340,000 tested, 0.05% active. AID 493014, 2011; active = well fitted inhibition curve with a large enough effect in the signal ratio, with a control signal flat, not every such curve was filed as active; inconclusive = small, poorly fitted or top-dose-only effect, or effect the other way, or a change in a side signal; the % refers to the signal ratio;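 note: potency is the fitted concentration of half-maximal effect; plate controls were basal doxycycline-induced cells for no effect and cells given 10 µM MG132 for full effect; MG132 reads +100%, hits lower the ratio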
#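 Concentration-response series (up to 46 uM) were applied to TMD8 dual-reporter cells for 4 h at 37C with doxycycline. Green/red ratio, after filter-overlap correction, defined %Activity; red signal alone was normalised to basal cells and zero luminescence.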
# PTAP TSG101 blk: qHTS Assay for Iinhibitors of HIV-1 Budding by Blocking the Interaction of PTAP/TSG101. Tumor susceptibility gene 101 protein (Homo sapiens), Q99816. Fluorescence polarization, FITC-PTAP peptide / Tsg101 binding. Potency, µM (doses to about 115 µM), without a hit: at the highest dose activity change, negative = inhibition, actives largely listed as inhibitors. 340,000 tested, under 10 active; active = well fitted inhibition curve with a large enough effect in the main read-out, with a control signal flat, not every such curve was filed as active; inconclusive = small, poorly fitted or top-dose-only effect, or effect the other way, or a change in a side signal; inactive = no such curve, though single readings can be large or run the other way; note: potency is the fitted concentration of half-maximal effect; % of control where 0% means no effect
#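 Fluorescence polarization binding of Tsg101 binding domain (10 uM final) to FITC-labeled PTAP peptide (50 nM final) in HEPES pH 7.5 buffer with NaCl, Tween 20, EDTA, TCEP. Compounds added before peptide; binding 20 min at RT.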
# Tb PFK inh: qHTS Assay to Find Inhibitors of T. brucei phosphofructokinase. ATP-dependent 6-phosphofructokinase (Trypanosoma brucei brucei), O15648. T. brucei PFK, ADP-Glo luminescence. Potency, µM (top dose mostly 57.5 µM), inactives show at the highest dose activity, negative = inhibition, hits mostly inhibitors. 330,000 tested, 0.17% active. AID 485367, 2010;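 note: potency is the fitted concentration of half-maximal effect; 0% = uninhibited 1x PFK enzyme wells and -100% = no-enzyme wells; nearly all actives have a fitted effect of over 60% in size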
#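 Compounds were pin-transferred as a titration series up to 57 uM into substrate buffer (0.5 mM F6P, 0.1 mM ATP, pH 8.0), then 1.25 nM PFK was added and reactions ran 45 min before ADP-Glo detection.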
# Giardia killer: Small Molecules that selectively kill Giardia lamblia: qHTS | AID 540267, 2011 | Giardia lamblia trophozoite viability | activity change, % at 7.66 µM, hits read low | 340,000 tested, 0.15% active; in the data active = activity change below about -80%; inconclusive = between about -30% and that limit;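 note: parasites exposed to compound for two days anaerobically before the ATP read; % is set by controls: 0 for no effect and ±100 for the full control effect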
#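 Killing of trophozoites was scored by loss of ATP luminescence after a 48 hrs anaerobic exposure to compounds at 37 deg C, using 100 cells per well.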
# FBPA coupling cs: qHTS Assay for Inhibitors of Fructose-1,6-bisphosphate Aldolase from Giardia Lamblia: Coupling assay counterscreen; coupling enzyme system counterscreen, AmpLite Red fluorescence; 290,000 tested, 0.67% active; AID 2472, 2010; activity change, negative = inhibition, % at 58.2 µM, hits read low; in the data active = activity change below about -30%; note: % is set by controls: 0 for no effect and ±100 for the full control effect
#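 Counterscreen lacking aldolase: glyceraldehyde-3-phosphate coupling-enzyme reagent preincubated 10 min at RT with compound (at 57.5 uM final), then substrate/coupling system with AmpLite Red added; fluorescence read at 525/598 nm after 20 min RT.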
# PKM2 act: qHTS Assay for Activators of Human Muscle isoform 2 Pyruvate Kinase; Pyruvate kinase PKM (Homo sapiens), P14618; purified PKM2, Kinase-Glo ATP luminescence, activation; response scale: 0% is enzyme alone, no compound; Potency, µM (titrated, usually from 57.5 µM), for inactives: at the top dose activation, actives largely listed as activators; 260,000 tested, 0.34% active; note: potency is the fitted concentration of half-maximal effect; % is set by controls: 0 for no effect and ±100 for the full control effect; nearly all actives have a fitted effect of over 55% in size
# Target sequence (P14618 whole entry, looked up, canonical isoform): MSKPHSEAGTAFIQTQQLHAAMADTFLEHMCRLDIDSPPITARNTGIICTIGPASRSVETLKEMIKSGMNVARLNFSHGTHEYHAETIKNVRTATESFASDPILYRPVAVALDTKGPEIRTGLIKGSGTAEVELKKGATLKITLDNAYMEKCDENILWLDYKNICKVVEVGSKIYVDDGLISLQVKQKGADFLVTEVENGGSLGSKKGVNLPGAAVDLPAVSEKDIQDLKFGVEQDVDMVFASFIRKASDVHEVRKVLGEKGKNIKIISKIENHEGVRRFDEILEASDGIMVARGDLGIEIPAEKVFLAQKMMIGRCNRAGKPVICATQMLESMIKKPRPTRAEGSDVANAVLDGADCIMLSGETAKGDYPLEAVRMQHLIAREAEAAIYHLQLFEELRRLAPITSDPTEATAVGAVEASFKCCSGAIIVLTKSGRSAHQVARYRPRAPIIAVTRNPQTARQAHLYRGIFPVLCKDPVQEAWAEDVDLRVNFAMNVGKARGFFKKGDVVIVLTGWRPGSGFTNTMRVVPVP
#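 Purified hPK-M2 (>95%) run at intermediate activity with 0.1 mM ADP and 0.5 mM PEP in 50 mM imidazole pH 7.2, KCl, MgCl2; 1 h room temperature. ATP formed read by Kinase-Glo luminescence; normalized to uninhibited and no-enzyme controls.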
# The depositor's hits bear a star; u = inconclusive; x = not tested or not shown; [ ] = another dose, or the depositor's remark. Unless noted, calls come from the whole dose curve; as a rule, active = well fitted curve in the direction sought with a large enough effect; inconclusive = small, poorly fitted or top-dose-only effect, or another doubt; inactive = no such curve, though single readings can be large; an effect the other way counts as inactive or inconclusive.
SMILES,GALK inh,Integrin act MD,B2AR arrestin,ASM inhibitor,BCR signal inh,PTAP TSG101 blk,Tb PFK inh,Giardia killer,FBPA coupling cs,PKM2 act
CCOC(=O)c1c(-c2ccc(F)cc2)cn2ccccc12,0%,5%,0.4%,2%,10%,0%,-2%,1,-1,8%
Cc1ccc(SCC(=O)Nc2ccc(S(N)(=O)=O)cc2)cc1,0%,8%,-1.1%,2%,-2%,2%,-17%,3,1,8%
CC(=O)c1cccc(S(=O)(=O)NC2CCSc3ccccc32)c1 (stereo unspecified),0%,-6%,-0.9%,-17%,6%,-3%,-1%,-9,1,2%
CC(=O)N1CCc2cc(C(=O)CN3CCN(C(=O)c4ccco4)CC3)ccc21,1%,10%,-0.1%,6%,-6%,-2%,-11%,-1,-5,7%
COc1ccc(NC(=O)CCC(=O)Nc2nnc(C(C)C)s2)cc1Cl,8%,7%,0.4%,1%,-5%,-1%,-1%,-3,4,4%
COc1cccc(C(=O)COc2ccccc2N2C(=O)C3C4C=CC(C4)C3C2=O)c1 (stereo unspecified),-4%,u,-1.8%,5%,-2%,-1%,-2%,-1,0,-10%
CN(C)S(=O)(=O)NCc1ccc2c(c1)OCO2,1%,-6%,-0.2%,-3%,u,-11%,0%,6,3,2%
Clc1ccccc1-c1nc(-c2ccccc2)n[nH]1,0%,-5%,-0.1%,-2%,u,-5%,-2%,8,-3,-2%
COC(=O)c1ccc(C2NCCc3cc(OC)c(OC)cc32)cc1 (stereo unspecified),x,21%,-0.2%,4%,-1%,-4%,-1%,1,1,x
O=C(NC(NC(=S)Nc1ccccc1Cl)C(Cl)(Cl)Cl)c1cccc(Cl)c1 (stereo unspecified),-2%,-55%,0.4%,-14%,u,-2%,8%,-11,-2,2%
CCN(C(=O)CSc1nnc(C)n1Cc1ccccc1)C1CCS(=O)(=O)C1 (stereo unspecified),0%,12%,8.6%,-1%,-14%,-3%,0%,0,-2,-6%
CC(C)(C)NC(=O)NC(=O)CN1CCc2ccccc21,2%,2%,-0.2%,5%,-10%,1%,-7%,19,-39*,17%
COc1ccc(-c2nn3c(C4CCCCC4)nnc3s2)cc1OC,1%,-28%,-0.1%,-3%,14µM*,1%,-26%,10,0,6%
CCCc1ccc(S(=O)(=O)NCC2CCCN2CC)cc1 (stereo unspecified),-2%,-13%,0.5%,-1%,2%,-4%,-1%,-7,2,x
COc1ccccc1N1CCN(Cc2nc3ccccc3c(=O)n2CC(C)=O)CC1,5%,-7%,0.0%,3%,0%,-9%,0%,-10,3,-2%
Cc1ccc(C(=O)NCC(=O)Nc2cccc(S(=O)(=O)NC3=NCCCCC3)c2)cc1C,-3%,-10%,0.3%,-4%,-1%,1%,5%,2,1,7%
N=c1oc2ccccc2cc1-c1nc(-c2ccccc2)cs1,1%,-21%,-1.1%,289%[activator],4%,1%,7%,4,-5,5%
CCn1c(CC(=O)Nc2cccc(Cl)c2Cl)nnc1SCCOc1ccc(OC)cc1,-1%,-23%,0.1%,0%,0%,-5%,-1%,12,1,-11%
CCn1c(CCNC(=O)c2ccc(OC)cc2)nnc1SCc1ccc(Cl)c(Cl)c1,1%,-42%,-0.8%,0%,-2%,-2%,17µM*,10,-10,-3%
C=CCCCCCCCCC(=O)N1CCN(c2cc3c(cc2F)c(=O)c(C(=O)O)cn3CC)CC1,4%,0%,0.5%,-7%,u,0%,0%,1,-10,x

# Sorted by molecular weight (descending): part of the list above.
SMILES,GALK inh,Integrin act MD,B2AR arrestin,ASM inhibitor,BCR signal inh,PTAP TSG101 blk,Tb PFK inh,Giardia killer,FBPA coupling cs,PKM2 act
C=CCCCCCCCCC(=O)N1CCN(c2cc3c(cc2F)c(=O)c(C(=O)O)cn3CC)CC1,4%,0%,0.5%,-7%,u,0%,0%,1,-10,x
CCn1c(CC(=O)Nc2cccc(Cl)c2Cl)nnc1SCCOc1ccc(OC)cc1,-1%,-23%,0.1%,0%,0%,-5%,-1%,12,1,-11%
O=C(NC(NC(=S)Nc1ccccc1Cl)C(Cl)(Cl)Cl)c1cccc(Cl)c1 (stereo unspecified),-2%,-55%,0.4%,-14%,u,-2%,8%,-11,-2,2%
CCn1c(CCNC(=O)c2ccc(OC)cc2)nnc1SCc1ccc(Cl)c(Cl)c1,1%,-42%,-0.8%,0%,-2%,-2%,17µM*,10,-10,-3%
Cc1ccc(C(=O)NCC(=O)Nc2cccc(S(=O)(=O)NC3=NCCCCC3)c2)cc1C,-3%,-10%,0.3%,-4%,-1%,1%,5%,2,1,7%
CCN(C(=O)CSc1nnc(C)n1Cc1ccccc1)C1CCS(=O)(=O)C1 (stereo unspecified),0%,12%,8.6%,-1%,-14%,-3%,0%,0,-2,-6%
N=c1oc2ccccc2cc1-c1nc(-c2ccccc2)cs1,1%,-21%,-1.1%,289%[activator],4%,1%,7%,4,-5,5%
CC(C)(C)NC(=O)NC(=O)CN1CCc2ccccc21,2%,2%,-0.2%,5%,-10%,1%,-7%,19,-39*,17%

# Carrying on.
SMILES,GALK inh,Integrin act MD,B2AR arrestin,ASM inhibitor,BCR signal inh,PTAP TSG101 blk,Tb PFK inh,Giardia killer,FBPA coupling cs,PKM2 act
Cc1cc(NC(=O)CN2C(=O)S/C(=C\c3ccccc3)C2=O)no1,0%,38%,-1.0%,4%,9%,0%,-3%,-10,1,-1%
COc1ccc(/C=N/Nc2cc(C)nc(-n3nc(C)cc3C)n2)cc1,x,-38%,-0.6%,-12%,u,0%,-2%,6,-2,3%
Cc1ccc(CNCc2cc3c(C(C)(C)C)nn(-c4ccccc4)c3[nH]c2=O)cc1,-3%,-26%,-0.2%,2%,5%,-4%,1%,15,1,-4%
Cc1cccc(/C=C2/S/C(=N/N=C3\CC4CCC3(C)C4(C)C)NC2=O)c1 (stereo unspecified),1%,-3%,-0.2%,-23%,u,-10%,-3%[0.46 µM],1,-1,2%
CC(C)CCN1CCN(C/C=C/c2ccco2)CC1CCO (stereo unspecified),4%,6%,-1.0%,6%,-14%,-5%,1%,-12,2,3%
CCOc1ccc(NC(=O)Cn2nnc(C(=O)NCc3ccco3)c2N)cc1,0%,-18%,-0.9%,4%,-7%,-4%,2%,11,2,1%
CC(C)(C)C(=O)NC(NC(=S)Nc1sc2c(c1C#N)CCCC2)C(Cl)(Cl)Cl (stereo unspecified),0%,-16%,0.0%,-27%,17%,-3%,-5%,7,x,0%
N#Cc1cc2ccccc2nc1SCC(=O)Nc1ccc(S(=O)(=O)N2CCCC2)cc1,1%,-28%,-0.9%,-6%,14%,x,5%,6,2,0%
Cc1cccc(Nc2nc(-c3ccccc3)c(C(=O)Nc3cccnc3)s2)c1,0%,-70%[inhibitor],-0.4%,x,u,2%,8%,-9,-6,-6%
CC1CCc2sc(NC(=S)NC(=O)c3ccccc3)c(C#N)c2C1 (stereo unspecified),0%,43%,3.4%,-7%,4%,0%,-14%,-4,-1,-4%
O=C(Nc1ccccc1)N1C(=O)C2(OCCO2)c2ccccc21,-3%,-1%,-0.4%,-2%,8%,0%,-4%,0,1,-3%
C/C(=N\NC(=O)c1ccc(Cl)cc1)c1ccc(Br)s1,-1%,-26%,0.4%,4%,-29%,0%,-2%,3,4,-2%
CC(C)c1nc2n[nH]c(N)c2c2c1CSC(C)(C)C2,0%,-49%[inhibitor],-0.4%,-3%,u,-1%,1%,-17,0,9%
COc1cc2c(cc1OC)-c1cc(N3CCCc4ccccc43)nc(=O)n1CC2,-2%,-20%,0.9%,-1%,u,-2%,17%,7,12,0%
COc1ccc(S(=O)(=O)N(CCN2CCOCC2)Cc2cc(OC)ccc2OC)cc1,0%,-20%,-0.1%,-1%,0%,0%,10%,-4,0,-12%
COC(=O)CN1C(=O)[C@H]2[C@@H](C3CC3)N3C(=O)CN(CCO)C(=O)[C@@]3(Cc3ccccc3)[C@H]2C1=O,x,5%,-0.8%,-2%,5%,-9%,-3%,-4,0,0%

# Not all compounds are listed (hit frequency here may not be typical).
